# Assay outcomes deposited in PubChem BioAssay by National Center for Advancing Translational Sciences (NCATS).
# VACV mCherry inh: qHTS for Stage-Specific Inhibitors of Vaccinia Orthopoxvirus: mCherry Reporter Primary qHTS; Vaccinia virus mCherry reporter infection, fluorescence; about a quarter of the inactives have no number; Potency, µM (series often up to 36.5 µM), for the others: top-dose activity change, negative = inhibition, hits mostly inhibitors; 310,000 compounds, 0.63% hits; active = well fitted inhibition curve with a large enough effect; inconclusive = small, poorly fitted or top-dose-only effect; inactive = no such curve, though single readings can be large or run the other way; tested in A549 cells; further: nearly all actives have a fitted effect of over 35% in size; inactives centre near -10
# VACV Venus inh: qHTS for Stage-Specific Inhibitors of Vaccinia Orthopoxvirus: Venus Reporter Primary qHTS | Vaccinia virus Venus reporter expression, fluorescence | Potency, µM (top dose mostly 36.5 µM), for inactives: at the highest dose activity change, negative = inhibition, actives largely listed as inhibitors | 330,000 compounds, 0.46% hits | AID 720580, 2013; active means well fitted inhibition curve with a large enough effect; inconclusive means small, poorly fitted or top-dose-only effect; inactive means no such curve, though single readings can be large or run the other way; tested in A549 cells; further: nearly all actives have a fitted effect of over 30% in size; inactives centre near -10
# Active calls of the source: *; i = inactive; ? = inconclusive; . = no result given; [ ] = remark or other dose. On the % scale 0 is the no-effect control and ±100 the full control effect; potency means the concentration at half of the fitted maximal effect.
SMILES	VACV mCherry inh	VACV Venus inh
CN(C)S(=O)(=O)c1ccc(C(=O)NCCSc2c(-c3ccc(Cl)cc3)[nH]c3ccccc23)cc1	-22.8%	-26.7%
CN(C)c1ccc(C=NNc2nc3c([nH]2)c(=O)n(C)c(=O)n3C)cc1	-15.0%	3.5%
C[N+]1(CC(=O)c2ccc(I)cc2)CCOCC1	i	-8.6%
Cc1ccc(N=Cc2c(O)n(-c3nccs3)c(=O)c3ccccc23)cc1	-12.8%	-3.8%
O=C(O)c1cccc(NC(=O)c2cccc(S(=O)(=O)N3CCc4ccccc43)c2)c1	3.4%	-9.6%
CN(C)c1ccc(/C=C/c2ccc3ncccc3c2)cc1	26.8%	-5.5%
CCc1ccc(NC(=O)c2ccc(Cn3cc([N+](=O)[O-])cn3)cc2)cc1	-25.2%	-29.2%
C/C(CC(=O)NCCc1ccccc1)=N\NC(=O)COc1ccc(Br)cc1	-19.3%	-7.3%
CC1=C(C(=O)OC2CCCCC2)C(c2ccco2)n2ncnc2N1 (stereo not drawn)	-9.4%	-1.5%
Cc1ccc(C)c(N(C(=O)Cn2nnc(-c3cccs3)n2)C(C(=O)NC2CC2)c2ccc(C)o2)c1 (stereo not drawn)	i	-20.9%
Cn1ncc(Br)c1C(=O)NC(=S)N1CCN(c2ccccn2)CC1	-7.8%	-3.9%
CN(C)c1nc(Oc2ccc(/C=N/O)cc2)nc(N(C)C)n1	.	-20.3%
O=C(CN1C(=O)c2ccccc2C1=O)NCc1ccc(F)cc1	-10.8%	-9.5%
C=CCNc1nc(N)c(C(=C(C#N)C#N)c2ccccc2)s1	-12.1%	?
Cc1cc(OCc2nc(-c3ccncc3)no2)cc(C)c1Cl	-11.2%	-20.0%
COc1ccc(C)cc1NC(=O)NCCn1nnc2cc(S(=O)(=O)N(C)C)ccc21	-7.9%	-8.0%
C=C[C@@]1(C)CC(=O)[C@]2(O)[C@@]3(C)[C@@H](O)CCC(C)(C)[C@@H]3[C@H](O)[C@H](OC(C)=O)[C@@]2(C)O1	-2.3%	-12.3%
CN1C(=O)C(C2c3ccccc3C(=O)N2Cc2ccccc2)C(=O)N(C)C1=O (stereo not drawn)	.	-20.6%
O=C(COc1coc(CN2CCN(c3ccccc3F)CC2)cc1=O)NCC1CCCO1 (stereo not drawn)	-6.4%	-2.6%
Cc1cccc(OCC(=O)N/N=C/c2sc(=O)n(Cc3cccc(C(=O)O)c3)c2Cl)c1	-9.1%	-7.1%
O=S(=O)(c1ccccc1)N1CCCC1c1cccs1 (stereo not drawn)	i[7.34 µM]	-4.5%[7.34 µM]
Cn1c(-c2ccc(C(C)(C)C)cc2)n[nH]c1=S	.	-24.8%
COC(=O)N/N=C\c1cc(Br)ccc1OCc1ccccc1	-20.1%	-11.3%
COc1ccc(NC(=O)c2cc(C3CCCCN3C(=O)c3cc(OC)c(C)c(OC)c3)on2)c(C)c1 (stereo not drawn)	-1.3%	?
COc1ccc(NC(=O)c2cc(-c3cc(C)c(C)cc3O)n[nH]2)c(OC)c1	-9.5%	-1.8%
COc1ccc(COC(=O)C2CCN(S(=O)(=O)c3ccc(F)cc3)CC2)cc1	-9.0%	-9.2%
Cc1ccc(NC(=O)c2cn(-c3ccccc3)nc2-c2ccccc2)cc1	-22.3%	-16.9%
NC(=O)C(c1ccccc1)c1ccc(C(=O)c2ccccc2)cc1 (stereo not drawn)	-24.9%	-7.0%
Cc1cccc(NC(=O)CN2C(=O)N/C(=C/c3cc(C)n(-c4cccnc4)c3C)C2=O)c1	-11.5%	-14.6%
Cc1cc2c(s1)CCCCC(=O)N2	.	-12.9%
CN(Cc1ccc(OC(F)F)cc1)C(=O)c1ccc2c(=O)n3c(nc2c1)CCC3	-7.5%	0.1%
OCC1CCCN2CCCCC12 (stereo not drawn)	-14.6%	-13.8%
CCOC(=O)C1=CCN(S(=O)(=O)c2ccccc2Cl)C1c1cccc(C)c1 (stereo not drawn)	i	-7.4%
COc1ccc(-n2nc3c(N4CCC(C(=O)NCCc5ccccc5)CC4)nnc(C)c3c2C)cc1	?	?
c1ccc(COc2ncnc3c2ncn3CCCN2CCN(Cc3cccc4ccccc34)CC2)cc1	10µM*	11.2µM*
COCC(=O)N(Cc1cc2ccccc2[nH]c1=O)c1ccc(OC)cc1	.	-13.1%
O=C(c1cccc(S(=O)(=O)N2CCc3ccccc3C2)c1)N1CCN(c2ccc(O)cc2)CC1	?	-29.7%
COc1cccc(-n2nc(C(=O)N3CCC4(CC3)OCCO4)c3ccccc3c2=O)c1	.	17.2%
Cn1c(NNC(=O)c2cccc3ccccc23)cc(=O)n(C)c1=O	-6.9%	-9.1%
COC(=O)c1c(N2C(=O)CC(Sc3ccccc3C(=O)O)C2=O)sc(C)c1C (stereo not drawn)	0.6%	1.1%
CCCCc1c(-c2ccccc2OC)ncn1C1CCCC1	-12.5%	-13.4%
Cc1ccccc1NC(=O)CSc1nc2ccccc2c(=O)n1CC1CCCO1 (stereo not drawn)	0.0%	14.0%
CCc1ccccc1NC(=O)C(=O)NCCc1sc(-c2cccc(C)c2)nc1C	-2.5%	-5.4%
CCOc1ccc(-n2c(=O)c3c4c(sc3n(Cc3cccc(Cl)c3)c2=O)CCCC4)cc1	-7.8%	3.7%
Nc1cc(N2CCNCC2)ccc1[N+](=O)[O-]	-0.7%	-2.4%
Cc1ccc(S(=O)(=O)N2CCOCC2)cc1NC(=O)COC(=O)CCC(=O)c1ccc(F)cc1	-7.9%	-7.4%
CC(C)(CNC(=O)C1CCN(S(=O)(=O)c2cc([N+](=O)[O-])ccc2Cl)CC1)N1CCOCC1	14.1µM*	?
COc1ccc(N(CC(=O)N2CCCC2)S(=O)(=O)c2ccc(NC(C)=O)cc2)cc1	-12.7%	-18.4%
CC(=O)c1ccc(NC2=NS(=O)(=O)c3ccccc32)cc1	-10.2%	-8.9%
CN(c1ccccc1)S(=O)(=O)c1ccc(Cl)c(C(=O)NC2=NCCS2)c1	13.0%	-18.1%
O=C(NCc1cccs1)C1CCN(c2ccc(S(=O)(=O)N3CCOCC3)cc2Cl)CC1	i	-28.7%
Cn1c(=O)c2c(nc(CN3CCc4ccccc4C3)n2Cc2ccc(Cl)cc2)n(C)c1=O	-7.4%	-15.4%
COc1ccc(OC)c(C2C=C(c3ccc(C)c(C)c3)Nc3nnnn32)c1 (stereo not drawn)	.	?
CCCCc1c(-c2ccc(F)cc2F)ncn1CCc1ccccc1OC	?	-29.2%
NC(=O)CC(NC(=O)Cc1cccc2ccccc12)c1ccc(NCc2ccccc2)c([N+](=O)[O-])c1 (stereo not drawn)	i	?
CCc1cccc(CC)c1-n1c(SCn2nnc3ccccc3c2=O)nnc1-c1cccnc1	.	-23.4%
O=C(CSc1nccn1-c1cccc(Cl)c1)NC1CCCC1	-15.0%	-9.0%
O=C1/C(=C\c2ccccc2)CN(C(=O)CCN2CCCCC2)C/C1=C/c1ccccc1	12.6µM*	11.2µM*
COc1ccccc1CN1CCNC(=O)C1CC(=O)N(C)Cc1ccon1 (stereo not drawn)	i	-24.4%
Cc1ccc(C)c(N(C(=O)c2ccco2)C(C(=O)NC2CCCC2)c2ccco2)c1 (stereo not drawn)	i	-14.8%

# Some of the entries above, reformatted:
OCC1CCCN2CCCCC12 (stereo not drawn)
  VACV mCherry inh: -14.6%
  VACV Venus inh: -13.8%
O=C(CSc1nccn1-c1cccc(Cl)c1)NC1CCCC1
  VACV mCherry inh: -15.0%
  VACV Venus inh: -9.0%

# (next part)
SMILES	VACV mCherry inh	VACV Venus inh
COc1ccc(/C=N/NC2=NS(=O)(=O)c3ccccc32)cc1OC(C)=O	-14.2%	-4.7%
COc1ccc(C(=O)Oc2ccc(C(c3c(C)[nH][nH]c3=O)c3c(C)[nH][nH]c3=O)cc2OC)cc1	-1.8%	-18.8%
Cc1ccc(S(=O)(=O)N2CCOCC2)cc1C(=O)N1CCC(Cc2ccccc2)CC1	-6.0%	-2.7%
C(#Cc1c(-c2ccsc2)sc2ccccc12)c1ccsc1	i	-15.9%
Cc1ccc(C)c(S(=O)(=O)N/N=C/c2ccc(F)cc2)c1	i	-2.9%
COCc1c(C(=O)N/N=C/c2c[nH]c3ccccc23)nnn1-c1nonc1N	5.5%	-4.8%
CCN(CC)C(=O)c1csc([C@@H]2O[C@H](CO)[C@H](O)[C@H](O)[C@H]2O)n1	3.7%	-0.2%
CCN(CC)C(=O)C1=C(C)N(CCCOC)C(=O)C(CC(=O)NC2CC2)C1 (stereo not drawn)	-3.6%	-0.1%
Cc1ccc2ccc(S(=O)(=O)NCc3ccco3)cc2c1	-7.6%	-8.2%
COc1cccc(CN2CC(C(=O)NCCCn3ccnc3C)CCC2=O)c1 (stereo not drawn)	i	-7.1%
CN(C)S(=O)(=O)c1ccc(N2CCCC2)c(C(=O)NNC(=O)COc2ccccc2Cl)c1	-15.7%	-20.0%
Fc1ccc(-c2nnc3ccc(N4CCCC4)nn23)cc1	i	-17.4%
COc1ccc(Cl)cc1C(=O)Nc1ccc(NC(=O)c2ccco2)cc1	.	-28.4%
CCc1ccc(NC(=O)Cn2nnc(C(=O)NCc3ccc4c(c3)OCO4)c2N)cc1	i[7.34 µM]	-11.6%[7.34 µM]
CCc1ccc2oc(-c3ccc(NC(=O)c4ccc(OC)c(Br)c4)cc3)nc2c1	-3.9%	0.0%
FC(F)(F)c1cccc(NC(=S)Nc2ccc(Cl)c(Cl)c2)c1	i	-9.9%
COc1ccc(C)cc1NC(=O)c1ccc(=O)n(Cc2ccccc2)c1	-14.8%	-4.7%
COc1ccc(OCC(=O)N/N=C2\CCCCc3ccccc32)cc1	-3.8%	-15.3%
Cc1[nH]nc(N=CC2=C(O)CC(c3ccco3)CC2=O)c1-c1ccccc1 (stereo not drawn)	-3.8%	27.3%
COc1ccc(C2=NN(CC(=O)NCCc3ccccc3)C(=O)CC2)cc1	-6.2%	-7.1%
COC(=O)c1ccc(C23CC4(C2)[C@H](CN(C)[C@@H]4c2ccccc2)C3c2ccccc2)cc1 (stereo partly drawn)	-14.7%	-17.1%
Cc1cc2ncc(Cl)nc2cc1C	-10.6%	-12.0%
O=C(NCC1CCCO1)c1nn2c(C(F)(F)F)cc(-c3ccco3)nc2c1Cl (stereo not drawn)	-15.7%	-11.4%
O=C(CSc1nnc(CNC(=O)c2cccs2)o1)Nc1ccccc1F	i	-12.8%
O=C(NCCN1C(=O)S/C(=C\c2ccccc2F)C1=O)C1CCCN1C(=O)c1cccs1 (stereo not drawn)	i	-25.1%
COc1cccc(NC(=O)c2ncc(Cl)c(Cl)c2Cl)c1	-8.9%	-9.4%
CN(C)CCCN(C(=O)c1ccc(S(=O)(=O)N2CCCCC2)cc1)c1nc2cc3c(cc2s1)OCO3	i	-19.1%
COc1ccc(-c2ccc(C(C)=O)cc2)cc1[C@H]1[C@H]2C=CC[C@@H](C)[C@@H]2C(=O)N1Cc1ccccc1	?	?
COc1[nH]c2ccc(F)cc2c1C(=O)OCC1CCN(CCNS(C)(=O)=O)CC1	-6.7%	-0.6%
Cn1c(SCC(=O)NC(=O)Cc2ccccc2)nnc1-c1ccc(F)cc1	i	6.1%

# Part of the list above in another layout:
CCc1ccc(NC(=O)Cn2nnc(C(=O)NCc3ccc4c(c3)OCO4)c2N)cc1
  VACV mCherry inh: i[7.34 µM] | VACV Venus inh: -11.6%[7.34 µM]

O=C(CSc1nnc(CNC(=O)c2cccs2)o1)Nc1ccccc1F
  VACV mCherry inh: i | VACV Venus inh: -12.8%

# More compounds:
SMILES	VACV mCherry inh	VACV Venus inh
CC1(C)N=C(N)N=C(N)N1c1ccc(OCCCOc2ccccc2)c(Cl)c1	?	?
COC(=O)C1CCN(C2CN(Cc3ccc(F)cc3)S(=O)(=O)C2)CC1 (stereo not drawn)	7.8%	-2.7%
CCCCCNC(=O)c1ccc2c(=O)n(CCCN3CCCC3=O)c(=S)[nH]c2c1	-7.7%	1.2%
CCOC(=O)CSCc1cn2cc(Cl)ccc2n1	-11.7%	-7.8%
CCOC(=O)/C(C#N)=C/C=C1/C=CC=CN1C	-16.1%	-13.5%
COc1ccccc1NC(=O)/C(C#N)=C/c1ccc(OCCN2CCOCC2)c(OC)c1	i	-1.7%
COc1ccc(Cn2c(C(C)C)nc3sc4ccccc4c(=O)c3c2=O)cc1	i	-6.2%
CC1(C)CC2CC(C)(CN2S(=O)(=O)c2ccc(C(=O)Nc3ccc(S(=O)(=O)N4CCOCC4)cc3)cc2)C1 (stereo not drawn)	i	-15.1%

# Filtered by structure: those above containing a cyano group.
SMILES	VACV mCherry inh	VACV Venus inh
C=CCNc1nc(N)c(C(=C(C#N)C#N)c2ccccc2)s1	-12.1%	?
CCOC(=O)/C(C#N)=C/C=C1/C=CC=CN1C	-16.1%	-13.5%
COc1ccccc1NC(=O)/C(C#N)=C/c1ccc(OCCN2CCOCC2)c(OC)c1	i	-1.7%

# Compounds were not picked by outcome; overall some 0.86% were active at least once.
